HPGD inh: HPGD (human) dehydrogenase inhibition. P15428. purified HPGD, NADH fluorescence kinetic, PGE2 substrate. Potency, µM, for the others: at the top dose activity change, negative = inhibition, hits mostly inhibitors. 150,000 tested, 4.3% active. AID 894; active = well fitted inhibition curve with a large enough effect (not every such curve was filed as active); inconclusive = small, poorly fitted or top-dose-only effect, or another doubt; inactive = no such curve, though single readings can be large or run the other way;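 further: top concentration of the series not given in the record; plate controls included wells without enzyme; inactives centre near -10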
Target sequence (P15428 whole entry, looked up): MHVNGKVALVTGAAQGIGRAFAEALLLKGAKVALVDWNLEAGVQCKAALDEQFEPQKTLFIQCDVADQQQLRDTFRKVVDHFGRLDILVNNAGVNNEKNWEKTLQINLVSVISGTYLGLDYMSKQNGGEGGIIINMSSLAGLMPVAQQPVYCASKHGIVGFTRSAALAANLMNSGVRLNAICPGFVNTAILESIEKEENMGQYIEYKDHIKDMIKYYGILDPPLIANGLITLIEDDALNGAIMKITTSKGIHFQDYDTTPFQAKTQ
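NADH formation kinetics: reaction with 30 uM PGE2 and 1 mM NAD+ (final), 20 nM enzyme, Tris-HCl pH 8 with Tween 20, after 15 min compound preincubation at room temperature. Fluorescence change, last versus first of five reads.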
Active calls of the source: *; u = inconclusive; & = joins results of further samples. On the % scale 0 is the no-effect control and ±100 the full control effect; potency means the concentration at half of the fitted maximal effect. Not all compounds are listed. The share of hits here may be higher or lower than overall.

HPGD inh	Structure
-13%	Cc1cccc(OCC(=O)Nc2ccc(N3CCN(C(=O)c4ccccc4)CC3)cc2)c1
25µM*	O=C1C=CC2=C3c4cc(O)c(O)cc4CC3(O)COC2=C1O (stereo unspecified)
-2%	COc1cc(OC)cc(-c2nc(-c3ccccc3)no2)c1
-15%	CN(C)Cc1cnc2ccc(Cl)cn12
-27%	COc1cc(C)ccc1OCCOCCOc1c(C)cc(C)cc1Br
-1%	CCCCOC(=O)c1ccc(N/C(=N\S(=O)(=O)c2ccccc2)c2ccccc2)cc1
u	CCc1cc2c(=O)c(-c3nc4ccccc4n3C)c(COCC(=O)O)oc2cc1O
-18%	Cc1[nH]nc(-c2ccc(O)cc2O)c1-c1ccc(Cl)cc1
0%	CSc1nnc2c3ccccc3n(Cc3ccccc3)c2n1
-8%	Cc1cc2ccc(C)c(C)c2nc1SCC(=O)c1cccs1
-4%	CCCC(=O)Nc1ccc(Cl)c(NC(=O)c2cccnc2)c1
-11%	CCCC(=O)Nc1ccc(Cl)c(NC(=O)c2ccc([N+](=O)[O-])cc2Cl)c1
-7%	Cc1ccc(C)n1CCN1CCN(CC(=O)Nc2ccc(S(N)(=O)=O)cc2)CC1
u	CC[C@@H]1C(c2cccc(C)c2)=NN(c2ccc(Br)cc2)[C@H]1C(=O)N1CCOC1=O
-19%	CN(C)CCCNCCCNC(=O)/C(=N\O)c1ccccn1

Some of these compounds in order of the HPGD inh value, rising.
SMILES	HPGD inh
COc1cc(C)ccc1OCCOCCOc1c(C)cc(C)cc1Br	-27%
CN(C)Cc1cnc2ccc(Cl)cn12	-15%
Cc1cccc(OCC(=O)Nc2ccc(N3CCN(C(=O)c4ccccc4)CC3)cc2)c1	-13%
Cc1cc2ccc(C)c(C)c2nc1SCC(=O)c1cccs1	-8%
COc1cc(OC)cc(-c2nc(-c3ccccc3)no2)c1	-2%
CSc1nnc2c3ccccc3n(Cc3ccccc3)c2n1	0%

The results go on:
HPGD inh	Structure
-8%	CC(C)NC(=O)c1cc2c(C(F)(F)F)nn(C)c2s1
-3%	Cc1onc(-c2c(Cl)cccc2Cl)c1C(=O)NC(C)(C)CO
-11%	Cc1cc(C)c(-c2cc(NC(=O)CSc3nncn3C)n(-c3ccccc3)n2)cc1C
u	O=C(Oc1ccc(Br)cc1C(=S)N1CCCCC1)c1cc([N+](=O)[O-])cc([N+](=O)[O-])c1
-8%	CCNC(=S)N1CCC(NC(=O)C2CCCCC2)CC1
u	N#Cc1cccc(-c2ccc3ncnc(NCc4cccnc4)c3c2)c1
u	N/C(=N\OC(=O)c1cc(Cl)ccc1Cl)c1ccccn1
-7%	O=C(O)CSc1nnnn1-c1ccccc1
-14%	CC(=O)c1ccc(N2CCC(c3cc(-c4ccc(Cl)cc4)n[nH]3)CC2)c([N+](=O)[O-])c1
-9%	CC(NC(=O)C(NC(=O)C1CCCN1C(=O)OC(C)(C)C)C(C)C)C(N)=O (stereo unspecified)
u	COC(=O)[C@@]1(Cc2ccc(OC)cc2)[C@H]2c3cc(C(=O)N4CCCC4)n(Cc4nc5ccccc5[nH]4)c3C[C@H]2CN1C(=O)c1ccccc1
-27%	COC(=O)c1sccc1NC(=O)c1cc(OC)c(OC)c(OC)c1
-10%	COCC(=O)N1CCc2nc(-c3ccc(OC)cc3C)c3c(c2C1)CO[C@@H](c1ccccc1)C3
-27%	C=CCn1c(COc2cccc3ccc(C)nc23)nnc1SCC(=O)OC
-9%	Cc1ccc(O)c(C2=NCCNC(C(F)(F)F)=C2)c1

Records above printed as active in HPGD inh.
HPGD inh	Structure
25µM*	O=C1C=CC2=C3c4cc(O)c(O)cc4CC3(O)COC2=C1O (stereo unspecified)

The main list resumes; the three compounds before the break are reprinted first.
HPGD inh	Structure
-10%	COCC(=O)N1CCc2nc(-c3ccc(OC)cc3C)c3c(c2C1)CO[C@@H](c1ccccc1)C3
-27%	C=CCn1c(COc2cccc3ccc(C)nc23)nnc1SCC(=O)OC
-9%	Cc1ccc(O)c(C2=NCCNC(C(F)(F)F)=C2)c1
-13%	COc1ccc(OCCN2C(=O)NC(C)(c3ccc(C)cc3)C2=O)cc1 (stereo unspecified)
u	Cc1ccc2nc(-c3ccc(NC(=O)COC(=O)c4cncc(Br)c4)cc3)sc2c1
-4%	Cc1cccc(/C(N)=N/OC(=O)CCC2CCCCC2)c1
-15%	Cc1noc(C(=O)Nc2ccccc2C(F)(F)F)c1Cl
-10%	CO/N=C/C(=N\Nc1ccc(OC)cc1)C(=O)c1ccc(OC)cc1
-21%	COCCNC(=O)c1sc2ncn(CC(=O)N3CCCCC3)c(=O)c2c1C
-8%	CC1(C)CC(=O)C2=C(C1)C(c1cn(-c3ccccc3)nc1-c1ccccc1)C(C#N)=C(N)O2 (stereo unspecified)
17%	O=S(=O)(c1ccc(F)cc1)n1ccc(-c2cnc(-c3ccccc3)s2)n1
-3%	O=C(Cc1ccc(Cl)cc1)Nc1nc2ccccc2[nH]1
-7%	CC(C(O)c1ccc(O)cc1)N1CCC(Cc2ccccc2)CC1 (stereo unspecified)
-15%	CC(NC(=O)OC1CCCCC1)N1C(=O)C2C3C=CC(C3)C2C1=O (stereo unspecified)
-9%	COc1ccc(S(=O)(=O)N2CCCN(Cc3cccc(F)c3)CC2)cc1
-4%	CN(C)S(=O)(=O)c1ccc(C(=O)Nc2ccnn2C2CCCCC2)cc1
-9%	CCOC(=O)C1CCCN(C(=O)COC(=O)C2=COCCO2)C1 (stereo unspecified)
32µM*	O=C1CCCC(O)=C1N=Nc1ccc2ncsc2c1

Going on with the list:
HPGD inh	Structure
-22%	COc1ccc(CCNC(=O)CCCOc2ccc(C)cc2)cc1OC
u	CCNc1ncc2ncc(=O)n(CCc3ccccc3)c2n1
-8%	Cc1ccccc1NC(=S)NCCc1c[nH]c2ccccc12
-15%	C=CCc1ccccc1OCCn1ccnc1
-18%	COC(=O)c1ccccc1NC(=O)C1CC(=O)N(c2ccccc2)C1 (stereo unspecified)
-6%	Cn1c(=O)c2c(nc(NCc3ccc4c(c3)OCO4)n2C)n(C)c1=O
14µM*	CC(Oc1ccccc1Cl)C(=O)/C=C/N(C)C (stereo unspecified)
-22%	CCCCNC(=O)c1nc2ncc(Br)cn2n1
u	Cc1ccc(NC(=O)C(=O)NCc2ccc(/C=C(/C#N)C(=O)NCc3cccnc3)o2)cc1
u	C=CCn1c(C2CC(=O)N(c3ccc(C)cc3)C2)nc2ccccc21 (stereo unspecified)
-3%	O=C(NCCCN1CCCCC1)C1CCC(=O)N1CCc1ccccc1 (stereo unspecified)
-4%	CC1/C(=N/O)C(CN(C)C)C2CC1C2(C)C (stereo unspecified)
-6%	CC(N=Cc1nc(-c2ccccc2)oc1O)c1ccccc1 (stereo unspecified)
-14%	COC(=O)C1=NN(C(=O)c2ccccc2)C(C)(O)C1 (stereo unspecified)
-18%	N=c1c2c(-c3ccccc3)c(-c3ccccc3)n(Cc3ccccc3)c2ncn1CCCO

Other structures follow.
HPGD inh	Structure
-7%	CSc1ccc(C2C(C#N)=C(N)Oc3cc4c(cc32)OCO4)cc1 (stereo unspecified)
-25%	O=C(CN1C(=O)/C(=C\C=C\c2ccccc2)SC1=S)Nc1ccc(F)cc1
-7%	Cc1ccccc1C(=O)NNC(=O)CCC(=O)Nc1cccc(Cl)c1C
u	COC(=O)c1ccc(NC(=O)CN(c2ccc(C)cc2)S(=O)(=O)c2c(C)nn(C)c2C)cc1
-16%	Cc1ccc(-n2nnc3ccccc3c2=O)cc1C
-12%	O=C(Nc1ccccc1)Nc1ccccn1
2%	Cc1ccc(S(=O)(=O)N2CCCOC2CNC(=O)C(=O)NCCc2c[nH]c3ccccc23)cc1 (stereo unspecified)
-15%	CC(C)c1ccc(/C=C/C(=O)NCCCc2ccccc2)cc1
-10%	O=C(/C=C/c1ccc(Cl)cc1Cl)c1nc2ccccc2[nH]1
-2%	CC(C)c1ccc(N(CC(=O)O)S(=O)(=O)c2cccnc2)cc1
-4%	CC1(C)CC2/C(CO)=C/C=C/[C@](C)(O)CC[C@]21O (stereo partly specified)
-9%	Cc1ccc(S(=O)(=O)Cc2ccccc2Cl)cc1
-6%	O=C(O)c1cccnc1Cl
-12%	CCOC(=O)c1[nH]c2ccccc2c1NC(=O)c1ccc(S(=O)(=O)N2CCOCC2)cc1
32µM*	O=C(NCc1ccccc1)c1cccc(Br)n1

The closing four entries of the part above come first, to join the parts.
HPGD inh	Structure
-9%	Cc1ccc(S(=O)(=O)Cc2ccccc2Cl)cc1
-6%	O=C(O)c1cccnc1Cl
-12%	CCOC(=O)c1[nH]c2ccccc2c1NC(=O)c1ccc(S(=O)(=O)N2CCOCC2)cc1
32µM*	O=C(NCc1ccccc1)c1cccc(Br)n1
-9%	COCCCNC(=S)Nc1ccc(CC(=O)O)cc1
2%	CCOC(=O)C1CCN(CCC(=O)Nc2ccccc2Cl)CC1
-15%	COc1ccccc1-c1c(-c2ccc(OCC(=O)NN)cc2O)n[nH]c1C(F)(F)F
-15%	CC(=O)Nc1cc(C(=O)OCC(=O)c2ccccc2)ccc1C
-9%	Cc1c(Nc2nc(-c3ccccc3)cs2)c(=O)n(-c2ccccc2)n1C
-6%	OC(COc1ccccc1)CN1C2=NCCCN2c2ccccc21 (stereo unspecified)
-3%	Cc1cc(C(=O)NC2CCCc3ccccc32)c(C)o1 (stereo unspecified)
-4%	Cc1cc(NC(=O)COC(=O)c2ccc(F)c(S(=O)(=O)N3CCOCC3)c2)no1
-10%	CN(C)CCCNC(=O)c1ccc(Cc2nc3ccccc3[nH]2)cc1
-14%	CN(CC(=O)Nc1ccc(S(=O)(=O)N2CCCC2)cc1)Cc1ccc(Cl)c(Cl)c1
-11%	CC(C)(C)c1ccc(S(=O)(=O)Nc2ccc(Cc3ccncc3)cc2)cc1
8%	CC(C)OC(=O)c1c(NC(=O)c2cnn3c2NC(c2ccccc2)CC3C(F)F)sc2c1CCCC2 (stereo unspecified)
-3%	CCOC(=O)C1=C(CC)Nc2ccccc2N=C1NC(=O)c1cc(S(=O)(=O)N(C)C)ccc1Cl
u	CC(Sc1ccc(Cl)cc1)C(=O)NCC1CCCO1 (stereo unspecified)
-15%	C/C(=N\NC(=O)CSc1nc2nc(C)cc(C)n2n1)c1ccccc1

(cont.)
HPGD inh	Structure
1%	Cc1cccc(OCCCC(=O)Nc2ccc(N3CCOCC3)cc2)c1
-3%	NC(=O)NC(=O)CSc1nnc(-c2ccco2)n1Cc1ccccc1
-7%	Cc1cc(N2CC(=O)N(CCc3ccccc3)C(=O)C2)n2ncnc2n1
3%	CC(C)(C)NC(=O)c1ccc(Sc2ccccc2)c([N+](=O)[O-])c1
-10%	CC1=C(C(N)=O)C(c2ccccc2)n2nc(-c3ccncc3)nc2N1 (stereo unspecified)
-16%	Cc1onc(-c2ccccc2)c1C(=O)Nc1cc(C(F)(F)F)ccc1N1CCOCC1
-7%	COC(=O)C1=C(NC(=O)C2CCCCC2)CCS1
-14%	COc1ccc2c(c1)-c1nc(/N=C/c3ccccc3O)sc1CC2
-7%	Cc1ccc(C)n1-n1c(C)nc2sc3c(c2c1=O)CCCCC3
-2%	O=C(Nc1nc(-c2ccc3c(c2)OCO3)cs1)c1ccncc1
-9%	COc1ccc(N2CCN(C(CNC(=O)C3CCCCC3)c3cccnc3)CC2)cc1 (stereo unspecified)
u	CC(=O)Nc1ccc(C#Cc2ccc(NC(C)=O)cc2)cc1
-21%	COc1cccc(NC(=O)Nc2cccs2)c1
-22%	Cc1cc(C)nc(SCc2cc(=O)c(OC(=O)c3ccc(S(=O)(=O)N4CCCC4)cc3)co2)n1
-1%	CCCc1nnc(NC(=O)CCC(=O)N2CCCCC2CC)s1 (stereo unspecified)

Remaining list, next part
HPGD inh	Structure
-9%	Cc1cccc(C(=O)N(NC(=O)Oc2ccccc2)C(C)(C)C)c1
-7%	CCOc1ccc(CC(=O)N2N=C(C)CC2(O)C(F)(F)F)cc1 (stereo unspecified)
-10%	O=C(CSc1nc2ccccc2c(=O)n1-c1ccccc1)N1CCc2ccccc2C1
-9%	COCCn1c(CN2CC(C)CC(C)C2)nc2c1c(=O)n(C)c(=O)n2C (stereo unspecified)
-24%	COc1ccc(S(=O)(=O)N2CCc3ccccc32)cc1C(=O)OCc1nnc(-c2ccccc2)o1
-27%	CCC1=Nc2cc(C(=O)NCc3ccco3)ccc2Sc2ccccc21
u	Cc1nc(N2CCOCC2)c2nc(-c3ccccc3)n(CCCN3CCOCC3)c2n1
-4%	CCOC(=O)c1ccc(NC(=O)CNS(=O)(=O)c2ccccc2)cc1
-4%&-3%	COCOc1cc(OC)ccc1C(=O)/C=C/c1ccc2c(c1)OCO2
-15%	O=C(COc1ccc(C(=O)c2ccccc2)cc1)NCC(=O)Nc1ccccc1Br
-1%	CCOc1ccc(N(CC(=O)N2CCN(c3ccccc3)CC2)S(=O)(=O)c2c(C)noc2C)cc1
-16%	Cc1cc2n(c(=O)c1C#N)CCCN2c1ccccc1
u	C/C=C(/C)C(=O)OC1Cc2c(ccc3ccc(=O)oc23)OC1(C)C (stereo unspecified)
u	CCC(=O)OCCNc1cc(Sc2nccn2C)c2nonc2c1[N+](=O)[O-]
-7%&-6%&-6%	CCN(CC)CCNc1ccc(CO)c2sc3ccccc3c(=O)c12
-2%	CCOC(=O)C1C(c2cccc(F)c2)NC(=S)NC1(O)C(F)(F)F (stereo unspecified)
-3%	Cc1ccc(-c2nnc(SCC(=O)O)n2N)cc1
-5%	COCCn1c(COc2ccc(C)cc2)nc2ccccc21

Bioassay records deposited in PubChem BioAssay by National Center for Advancing Translational Sciences (NCATS).
